# Source: PubChem
# RE007 growth inh = qHTS Assay for Inhibitors of the HIV-1 protein Vpr. Potency, µM (highest dose often 92.2 µM), inactives show at the top dose activity change, negative = less growth. S. pombe RE007 Vpr strain, BacTiter-Glo ATP luminescence, 24 h; control for the full effect not named in the record. 360,000 compounds, 0.21% hits; active = well fitted falling curve with a large enough effect; inconclusive = small, poorly fitted or top-dose-only effect; inactive = no such curve, though single readings can be large or run the other way;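 also: % is scaled to controls: 0 for no effect and ±100 for the full control effect; nearly all actives have a fitted effect of over 50% in size; the assay follows cell death caused by Vpr and the record does not say whether a fall means rescue or toxicity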
#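 Fission yeast strain RE007, carrying one chromosomally integrated HIV-1 vpr copy, was seeded at OD 0.01 in PMG+AL medium with 23 nL pinned compound. After 24 h at 30 °C and 99% humidity, viability was read by BacTiter-Glo luminescence.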
# SARS PLP yeast = qHTS of Yeast-based Assay for SARS-CoV PLP; S. cerevisiae expressing SARS-CoV PLpro, growth rescue; control for the full effect not named in the record; Potency, µM (doses to about 32.9 µM), without a hit: top-dose activity, positive = growth rescue; 330,000 compounds, 0.19% hits; AID 485353, 2010; active means well fitted rising curve with a large enough effect; inconclusive means small, poorly fitted or top-dose-only effect; inactive means no such curve, though single readings can be large or run the other way; also: 0% is about no effect; nearly all actives have a fitted effect of over 55% in size; growth read by luminescence after 48 h
# StopGo reporter = High Throughput Screening for Foot and Mouth Disease Virus Antivirals; human cells with a luciferase reporter of 2A StopGo recoding; control for the full effect not named in the record; Potency, µM (highest dose often 57.9 µM), for inactives: top-dose signal change, negative = less light; 410,000 compounds, 1.2% hits; active = well fitted falling curve with a large enough effect; inconclusive = small, poorly fitted or top-dose-only effect; inactive = no such curve, though single readings can be large or run the other way; tested in HEK293T cells; also: % is scaled to controls: 0 for no effect and ±100 for the full control effect; nearly all actives have a fitted effect of over 45% in size; luciferase light after 4 h
# The depositor's hits bear a star; ? = inconclusive; [ ] = remark or other dose. Potency is read from the fitted curve at half-maximal effect. Not all compounds are listed (hit frequency here may not be typical).
# Results follow in this order: RE007 growth inh, SARS PLP yeast, StopGo reporter
COc1ccc(NC(=O)CN(C)C(=O)c2ccc(NS(=O)(=O)c3ccc4[nH]c(=O)[nH]c4c3)cc2)cc1
  7%, 3%, 1%
CC1CC(C)CN(C(=O)COC(=O)c2ccc(N3CCCC3=O)cc2)C1 (configuration not stated)
  -16%, -2%, -6%
COc1ccc(S(=O)(=O)N2CCCCCC2)cc1C(=O)Nc1cc(C)ccn1
  -8%, 7%, 6%
COc1cccc(NC(=O)CN(C)C(=O)c2ccc3c(c2)C(=O)N(CCC(C)C)C3=O)c1
  5%, 5%, ?
COCCNC(=O)[C@@H]1CCCN1S(=O)(=O)c1cccc2cccnc12
  0%, 4%, -21%
O=C(NNC(=O)c1ccc(=O)[nH]c1)c1ccc(NS(=O)(=O)c2cccs2)cc1
  2%, 2%, 0%
CCCCn1c(N)c(N(C)C(=O)c2cccc(-n3cnnn3)c2)c(=O)[nH]c1=O
  4%, 1%, -19%
C#CCOCCOCCOCCNc1nc(N2CCN(C(=O)[C@H](CC(N)=O)n3cc(C(N)[C@@H](C)CC)nn3)CC2)nc(N2CCN(C(=O)[C@H](CCCCN)n3cc([C@@H](N)CC(N)=O)nn3)CC2)n1 (some centres not stated)
  8%, -31%, -3%
CSCCC(C(=O)N(C)CC(=O)Nc1cccc(F)c1)N1C(=O)c2ccccc2C1=O (configuration not stated)
  1%, -9%, -7%
O=C(CN1C(=O)NC(CCc2ccccc2)C1=O)N1CCCCCC1 (configuration not stated)
  -13%, 2%, -14%
C=CCN1C(=O)c2ccc(C(=O)OCC(=O)N(CC)C3CCS(=O)(=O)C3)cc2C1=O (configuration not stated)
  -6%, -2%, 7%
COc1ccccc1NC(=O)C1CCN(S(=O)(=O)c2cccs2)CC1
  8%, -1%, -10%
COc1ccc(C=Nc2cccc3ncccc23)cc1
  9%, -1%, -1%
CSc1nc(N)c2c(n1)OC(N)=C(C#N)C2c1cccnc1 (configuration not stated)
  0%, 0%, -20%
O=[N+]([O-])c1ccc(-c2c(-c3ccccc3)ncc3cc(F)ccc23)cc1
  -5%, -6%, -3%
Cn1c(CCC(N)=O)nnc1SCC(=O)Nc1ccccc1C(=O)NC1CC1
  22%, 2%, -10%
Fc1ccccc1-c1cc2ccccc2cn1
  -12%, 5%, 76%[activator]
O=C(NC1=NCCS1)C1CCN(S(=O)(=O)c2ccc(Cl)cc2)CC1
  0%, 1%, -8%
CCN(C[C@H]1N[C@@](CC)(C(=O)OC)[C@H]2C(=O)N(Cc3ccccc3)C(=O)[C@@H]12)C(=O)COC
  -12%, -3%, -8%
CC(C)(C)OC(=O)NCCCCCNC(=O)c1nc[nH]c1C(=O)NCCCCCNC(=O)OC(C)(C)C
  16%, -18%, 13µM*
CC(C)(C)c1ccc(C(=O)NCC(=O)OCC(=O)N2CCCC2)cc1
  -6%, 5%, -3%
Cc1ccc(S(=O)(=O)N2CCCCC2)cc1NC(=O)COC(=O)c1cccn1C
  3%, -5%, -26%
Cc1ccc2c(c1)[C@H]1[C@H](CO2)[C@H](c2ccccc2)[C@]2(C)C(=O)Nc3ccc(Br)cc3C(=O)N12
  0%, -5%, -17%
CCOC(=O)C1CCCN(C(=O)c2sc3nc4n(c(=O)c3c2C)CCC4)C1 (configuration not stated)
  5%, 7%, -14%
COc1ccc(C(CNC(=O)CNC(=O)c2ccccc2)N2CCCC2)cc1 (configuration not stated)
  1%, -9%, -13%
CC[C@@]1(C(=O)OC)N[C@H](CN(C)C(=O)c2ccccc2)[C@@H]2C(=O)N(Cc3ccccc3)C(=O)[C@@H]21
  -12%, 4%, -10%
O=c1cc(-c2ccc(C(F)(F)F)cc2)oc2ccccc12
  14%, 1%, 22%
O=C(NCc1ccc(Cl)cc1)C1CCCN(C(=O)c2ccc(Cl)cc2)C1 (configuration not stated)
  -4%, 8%, -15%
O=C(CN1C(=O)NC2(CCCCC2)C1=O)Oc1ccc2c(C(F)(F)F)cc(=O)oc2c1
  -15%, 3%, -27%
Cc1ncc([N+](=O)[O-])n1CC(=O)N/N=C/c1ccccc1F
  9%, 0%, 2%
CN(C)C(=O)CSc1ccccc1C(=O)OCC(=O)NC1CC1
  14%, -1%, -8%
O=C(Nc1cccc(C(=O)N2CCN(c3cccc(Cl)c3)CC2)c1)c1ccccc1
  -4%, -1%, -10%
CCOc1ccc(S(=O)(=O)Nc2ccc(C(=O)NCc3ccncc3)cc2)cc1
  -11%, 1%, 7%
O=C(CSc1nc(-c2ccccc2)cs1)NCCCN1CCCC1=O
  2%, -2%, 0%
Cc1ccc(S(=O)(=O)N2[C@@H](c3ccc(Cl)cc3)C(C(=O)O)=CC[C@H]2c2cccs2)cc1
  -6%, 7%, -12%
Cc1ccc(NC(=S)NCC2CCN(C(C)c3ccccc3)C2)cc1C (configuration not stated)
  -20%, 3%, -3%
CCN(CC)C(=O)[C@H]1C[C@H](CC(=O)NCC23CC4CC(CC(C4)C2)C3)C(=O)N2CCc3c([nH]c4ccc(Cl)cc34)[C@]12C
  -4%, -15%, -8%
CCN1CCN(CC(=O)c2cc(Cl)ccc2Cl)CC1
  6%, -3%, -2%
COc1ccc(OC)c(-n2c(SCC(=O)NCC3CCCO3)nc3ccccc3c2=O)c1 (configuration not stated)
  -4%, -4%, -20%
CCOc1ncccc1C(=O)OCC(=O)NC(=O)NC(C)C
  13%, 1%, -4%
CN(Cc1ccc(F)cc1)C(=O)CNC(=O)c1cccs1
  2%, 5%, 20%
CC(C)(C)OC(=O)N[C@H](C(=O)OC(C)(C)C)c1ccc(Br)cc1
  4%, 0%, 0%
CC(=O)N1CCN(S(=O)(=O)c2ccc3c(c2)CCC(=O)N3)CC1
  -6%, 14%, 2%
COc1ccc2cc(C[C@@H]3CC[C@@H](CO)O3)ccc2c1
  15%, -4%, 28%
O=C(Cc1c(F)cccc1Cl)NNC(=O)c1ccncc1
  5%, 0%, -15%
COC(=O)C1=C(c2ccc(F)cc2F)C[C@@H]2CC[C@H]1N2C(=O)NCCNC(C)=O
  1%, 1%, -11%
CCOC(=O)C1CCCN(C(=O)COc2ccc(N(C)S(=O)(=O)c3ccc(C)cc3)cc2)C1 (configuration not stated)
  -7%, 2%, -20%
COC(=O)C1=C(c2ccc(OC(F)(F)F)cc2)C[C@@H]2CC[C@H]1N2C(=O)NCCOc1ccccc1
  6%, -3%, ?
CCOC(=O)c1ccc(NC(=O)CSC(=S)N2CCOCC2)cc1
  28%, 0%, 2%
COc1cccc(/C=C/C(=O)OCC(=O)c2c[nH]c3ccccc23)c1
  -7%, 12%, -8%

# Continuation.
# Results follow in this order: RE007 growth inh, SARS PLP yeast, StopGo reporter
CN(C(=O)COC(=O)CCC1CCCCC1)c1c(N)n(Cc2ccccc2)c(=O)[nH]c1=O
  -2%, -7%, -20%
CCc1cccc(CC)c1NC(=O)CO/N=C(\N)CC(=O)NC1CCCCC1
  -6%, 1%, -4%
COc1cc(/C=C2/C(=O)ON=C2C)ccc1OCc1cccc(F)c1
  7%, -2%, ?
CCC(C)(C)c1ccc(OCCCC[n+]2ccccc2)c(C(C)(C)CC)c1
  ?, -19%, 32µM*
CCC(C)[C@H]1CNCCN1CCC12CC3CC(CC(C3)C1)C2 (some centres not stated)
  ?, -3%, -13%
C=CC[C@H](CC(=O)NCCO)C(=O)NC[C@@H](OC(=O)[C@@H](CC=C)CC(=O)OC(C)(C)C)c1ccccc1
  2%, 0%, 23%
Cc1ccc(-c2cc(C(=O)OCC(=O)NC3CC3)c3ccccc3n2)cc1
  -1%, 6%, 18%
COc1ccc(C2=CC(=O)CC(C)(C)C2)cc1OC
  ?, 2%, -11%
O=c1ccc(S(=O)(=O)N2CCCC2)cn1Cc1ccc(Cl)cc1Cl
  -3%, 0%, ?
C[C@H]1CN([C@@H](C)CO)C(=O)c2cccc(NC(=O)Nc3ccc(C(F)(F)F)cc3)c2O[C@H]1CN(C)C
  0%, -5%, -3%

# Full records, looked up by structure:
# Shown for `CCc1cccc(CC)c1NC(=O)CO/N=C(\N)CC(=O)NC1CCCCC1` → RE007 growth inh = -6%; SARS PLP yeast = 1%; StopGo reporter = -4%
# Shown for `Cc1ccc(-c2cc(C(=O)OCC(=O)NC3CC3)c3ccccc3n2)cc1` → RE007 growth inh = -1%; SARS PLP yeast = 6%; StopGo reporter = 18%
# Shown for `C=CC[C@H](CC(=O)NCCO)C(=O)NC[C@@H](OC(=O)[C@@H](CC=C)CC(=O)OC(C)(C)C)c1ccccc1` → RE007 growth inh = 2%; SARS PLP yeast = 0%; StopGo reporter = 23%

# Continuation:
# Results follow in this order: RE007 growth inh, SARS PLP yeast, StopGo reporter
CCSc1nnc(SCC(=O)Nc2cc(C)on2)s1
  7%, -4%, -19%
COC(=O)c1cc(=O)n(Cc2ccc(F)cc2)c(=NCc2ccc(F)cc2)s1
  10%, -1%, -21%
O=C(OCc1c(-c2ccccc2)ncc2ccccc12)c1ccc(Cl)cc1Cl
  -13%, 1%, -24%
CC(C)C(=O)COc1c2occc2cc2ccc(=O)oc12
  7%, 4%, 17%
O=C(CN(c1cccc(Cl)c1)S(=O)(=O)c1ccccc1)NN=C1CCCC1
  8%, 1%, 45%[activator]
NC(=O)NC(=O)COC(=O)CCCCCNS(=O)(=O)c1ccc2c(c1)OCCO2
  0%, 0%, -12%
COc1ccc(NC(=O)c2cccc3c2C(=O)c2ccc(-c4cnc(OC)nc4)cc2S3(=O)=O)cc1
  14%, 0%, -5%
CC(=O)Nc1ccc(NC(=O)C(C)OC(=O)C2(c3ccccc3F)CCCC2)cc1 (configuration not stated)
  7%, -4%, -14%
O=C1CCC/C=C\C[C@@H](CC(=O)N(CCO)Cc2ccccc2)C(=O)N[C@H](c2ccccc2)CO1
  5%, 7%, 17%
CCCc1nc(SCC(=O)c2ccc(F)cc2)c2ccccc2n1
  -18%, -18%, ?
CC(=O)N(CN1C(=O)c2ccc([N+](=O)[O-])cc2C1=O)c1cccc(C(=O)O)c1
  8%, 4%, -15%
O=C(Cc1ccc(Br)cc1)OCC(=O)N1CCOCC1
  -4%, 7%, -3%
CCN1C[C@@H]2[C@@H]3C(=O)N(Cc4ccccc4)C(=O)[C@@H]3[C@](C)(C(=O)OC)N2C1=NC1CCCCC1
  -3%, 7%, -1%
CCOc1ccccc1NC(=O)C(c1ccccc1)N1CCN(CC(=O)N2CCOCC2)CC1 (configuration not stated)
  3%, -1%, -15%
CCOC(=O)[C@H]1[C@H]2COc3ccc(OC)cc3[C@@H]2N2C(=O)c3ccc(F)cc3NC(=O)[C@@]12C
  -8%, 3%, -4%
CCOC(=O)C1=C(c2ccccc2)c2ccccc2N(S(=O)(=O)C(F)(F)F)C1C(=O)OCC (configuration not stated)
  -1%, -11%, -14%
COc1ccc(-c2cc3ccc(F)cc3cn2)cc1
  1%, -31%, 6%
COc1ccc(C(=O)NCc2ccc3c(c2)OCO3)cc1S(=O)(=O)N1CCCC1
  5%, 11%, 45%[activator]
CCSc1ccc([C@@H]2[C@H]3C(=O)N(C)C(=O)[C@H]3[C@]3(C(=O)OC)CCCCN23)cc1
  3%, -3%, 0%
O=C(COC(=O)Cc1c(Cl)cccc1Cl)NCc1ccco1
  -3%, 5%, 7%
O=C1C=C(c2ccc(Oc3ccccc3)cc2)C[C@@H](c2ccc3c(c2)OCO3)C1
  -2%, -6%, -7%
O=C(CN1CCN(C(=O)CNC(=O)c2ccc(N3CCCC3=O)cc2)CC1)Nc1ccccc1Cl
  -5%, 2%, 0%
Cc1ccccc1-n1c(=O)c2ccccc2n(CC(=O)NCc2ccco2)c1=O
  1%, 2%, -16%
NC(=O)c1nc(C(=O)N2CCCCC2)c2ccccc2n1
  6%, 1%, -3%
CN(Cc1ccccc1)C(=O)c1ccc(NC(=O)Cc2cccc(NC(=O)C3CCCN(C(=O)C4CCCC4)C3)c2)cc1 (configuration not stated)
  7%, 6%, -15%
O=C1NC(=O)c2cc3ccccc3cc21
  1%, -4%, 14%
CCN(C[C@H]1N[C@@](C)(C(=O)OC)[C@H]2C(=O)N(C)C(=O)[C@@H]12)S(=O)(=O)c1ccc(C(F)(F)F)cc1
  -1%, 2%, -24%
C/C=C(\C)C(=O)O[C@@H]([C@H](O)c1cc2ccc(=O)oc2cc1OC)C(C)(C)O
  4%, -2%, -25%
CC(C)(C)c1ccc(CN2C(=O)CSC2=O)cc1
  3%, -6%, 0%
CC(C)(C)OC(=O)NCc1ccc(CNC(=O)c2nc[nH]c2C(=O)NCc2ccc(CNC(=O)OC(C)(C)C)cc2)cc1
  16%, -2%, 13µM*
Cc1cc(Cn2nc(-c3ccccc3)cc2C(=O)NCc2cccc(C(F)(F)F)c2)on1
  2%, 4%, -3%
